Rango release inh – qHTS Assay for Inhibitors of RanGTP induced Rango (Ran-regulated importin-beta cargo) - Importin beta complex dissociation. Snurportin-1 (Homo sapiens) + GTP-binding nuclear protein Ran (Homo sapiens) + Importin …. Biochemical FRET Rango-importin beta, RanGTP-induced dissociation. Potency, µM (titrated, usually from 46.1 µM), for inactives: top-dose activity change, negative = inhibition. 0.071% of 340,000 active. AID 540253, 2011; active means falling FRET ratio curve, often poorly fitted, with flat reads before Ran was added; inconclusive means other falling curves, or compound fluorescence or quenching; inactive means flat or rising ratio curve;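 also: potency is read from the fitted curve at half-maximal effect; % of control where 0% means no effect; nearly all actives have a fitted effect of over 45% in size; -100% = wells without RanGTP and RCC1; the record marks most hits as doubtful in a second field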
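Compounds preincubate 5 min with complex of recombinant Rango and importin beta in PBS with 1 mM DTT. Ran (0.6 uM) loaded with 2 mM GTP plus 0.2 uM RCC1 starts dissociation; FRET is recorded 45 min later.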
miR-21 reporter – qHTS Assay for Modulators of miRNAs and/orActivators of miR-21; HeLa miR-21 FLuc reporter, luciferase, 48 h; AID 2288, 2010; Potency, µM (doses to about 38.3 µM), inactives show top-dose reporter change, positive = more light; 340,000 tested, under 10 active; active = well fitted rising curve with a large enough effect; inconclusive = small, poorly fitted or top-dose-only effect; inactive = no such curve, though single readings can be large or run the other way;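 also: % of control where 0% means no effect; miR-21 action dims this reporter so a rising signal means less miR-21 action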
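HeLa cells endogenously expressing miR-21, stably carrying CMV-driven firefly luciferase with a downstream miR-21 binding site, 2000 cells/well. Titrations up to approximately 40 uM, 48 hours; luciferase luminescence read.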
GLA inh pH 4.5 – qHTS Assay for Inhibitors of Human alpha-Galactosidase at pH 4.5. Alpha-galactosidase A (Homo sapiens), P06280. purified enzyme, 4-MU-alpha-Gal fluorescence, pH 4.5. activity change, negative = inhibition, % at 105 µM. 230,000 tested, under 10 active; inconclusive = small, poorly fitted or top-dose-only inhibition, or a rising curve; inactive = flat fitted curve, though single readings scatter; no compound was filed as active;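 also: 0% = full activity with enzyme and -100% = basal without enzyme; dose as in the result columns while the protocol names 77 µM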
Target sequence (P06280 whole entry, looked up): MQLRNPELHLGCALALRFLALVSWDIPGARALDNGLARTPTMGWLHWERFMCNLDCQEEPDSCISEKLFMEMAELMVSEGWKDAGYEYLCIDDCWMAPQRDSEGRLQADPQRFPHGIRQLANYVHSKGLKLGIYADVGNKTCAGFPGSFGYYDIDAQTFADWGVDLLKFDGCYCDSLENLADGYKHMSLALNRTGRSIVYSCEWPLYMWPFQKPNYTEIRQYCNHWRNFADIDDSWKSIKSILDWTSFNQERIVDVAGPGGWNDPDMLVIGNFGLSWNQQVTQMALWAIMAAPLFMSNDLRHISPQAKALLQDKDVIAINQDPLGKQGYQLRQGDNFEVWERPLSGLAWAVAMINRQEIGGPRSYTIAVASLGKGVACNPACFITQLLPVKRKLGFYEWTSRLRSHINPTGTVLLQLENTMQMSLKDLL
Rango-impB inh – qHTS Assay for Inhibitors of Rango (Ran-regulated importin-beta cargo) - Importin beta complex formation. Importin subunit beta-1 (Homo sapiens), Q14974. Rango CFP/YFP FRET sensor + importin beta, 45 min. Potency, µM (series often up to 92.2 µM), for inactives: at the highest dose inhibition of complex formation. 0.031% of 340,000 active. AID 540263, 2011; active = rising FRET ratio curve, often small or poorly fitted; inconclusive = mostly compound fluorescence or quenching in the first reads; inactive = flat curves in all reads;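 also: potency is read from the fitted curve at half-maximal effect; 0% = DMSO wells and 100% = buffer wells lacking importin beta; nearly all actives have a fitted effect of over 15% in size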
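FRET biosensor (snurportin 1 IBB flanked by EYFP and cerulean), 50 nM, with compound 5 min, then 0.125 microM importin beta in PBS, 1 mM DTT, 0.02% Tween-20, 0.1% BSA. CFP/YFP ratio read after 45 min at room temperature; pre-read flags interference.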
An asterisk follows results filed as active; ? = inconclusive; . = no result given; & = joins results of further samples; [ ] = remark or other dose.

miR-21 reporter	GLA inh pH 4.5	Rango release inh	Rango-impB inh	Structure
-20%	8	-11%	1.1%	COCc1ccc(C(=O)Nc2ccc(C(=O)O)cc2)o1
.	.	-10%	4.9%	Nc1nc(Cl)nc2c1ncn2C1OCC(O)C(O)C1O (centres undefined)
-20%	2[21.1 µM]	-8%	-1.0%	Cc1ccc(CNC(=O)CSc2nc3ccsc3c(=O)n2Cc2ccccn2)cc1
-2%	0	26%	?	CC(c1ccon1)N(C)Cc1cn(C)nc1-c1ccc2c(c1)OCCO2 (centres undefined)
0%&-7%	.	1%	0.0%	Cc1cc2[nH]c(=O)c(=O)[nH]c2cc1S(=O)(=O)N1CCN(c2cccc(Cl)c2)CC1
-1%	-18	-6%	2.4%	CCOc1ccc(NC(=S)N(CCc2c(C)[nH]c3ccc(C)cc23)Cc2ccncc2)cc1
.	.	-2%	-0.1%	COC(=O)C1(CC2CC(c3ccncc3)=NO2)CCN(C(=O)OC(C)(C)C)CC1 (centres undefined)
1%	.	-7%	?	Cc1ccc(-c2cc(C(=O)NCCN3CCOCC3)c3ccccc3n2)o1
0%	.	18%	-0.4%	O=C(CN1CCN(c2cccc(Cl)c2)CC1)NCc1ccccc1
-1%	.	4%	1.7%	Cc1csc(SCC(=O)Nc2nnc(C)s2)n1
-1%	-3	16%	3.9%	Cc1nnc2sc(-c3ccncc3)nn12
-22%	4	0%	1.6%	Cc1ccc2c(c1)N(CCCC(=O)NCCC1=CCCCC1)C(=O)CO2

miR-21 reporter	GLA inh pH 4.5	Rango release inh	Rango-impB inh	Structure
-1%	-8	-17%	-0.2%	CC(C)(C)N(NC(=O)Nc1ccccc1)C(=O)c1ccccc1
.	.	-5%	5.5%	Cc1cc(=O)[nH]c(NN=Cc2c(Cl)cccc2Cl)n1
-3%	-3	1%	4.2%	COc1ccc(S(=O)(=O)N2CCOCC2)cc1NC(=O)CCc1c[nH]c2ccccc12
0%	29	-5%	0.5%	CC1=CC=CN2C1=NC(=O)CC2(C)C(=O)N(CC(=O)NC1CCCC1)c1ccccc1C (centres undefined)
.	.	-18%	1.2%	CC(C)Sc1nnc2n(CCc3ccccc3)c(=O)c3c4c(sc3n12)COC(C)(C)C4
-5%	8	-8%	2.4%	CC1(C)Cc2sc3c(=O)[nH]c(=S)[nH]c3c2CO1
.	.	18%	-0.2%	COc1ccccc1C(=O)C(=O)c1ccccc1OC
-6%	4	6%	2.5%	COC(=O)CSC1=NS(=O)(=O)c2ccccc21
.	.	2%	2.6%	Cc1cc2c(cc1S(=O)(=O)NCCc1ccccc1)NC(=O)CO2
?	7	-26%	-1.9%	CCc1ccc(/C=C/C(=O)c2c(C)cc(C)[nH]c2=O)cc1
6%	.	20%	-1.2%	COC(=O)C1=CN(Cc2ccc(F)cc2)C=C(C(=O)OC)C1c1ccc(O)c(OC)c1
-9%	8	3%	-0.2%	Cc1ccccc1-n1nc(C(=O)O)cc1-c1ccccc1

miR-21 reporter	GLA inh pH 4.5	Rango release inh	Rango-impB inh	Structure
0%	6	-18%	-1.0%	Cc1cc(OCC(C)C)ccc1/C(O)=C1/C(=O)C(=O)N(Cc2cccnc2)C1c1ccncc1 (centres undefined)
-8%	2	-1%	-0.1%	COc1ccc(NC(=O)c2oc3ccccc3c2NC(=O)C(C)(C)C)cc1
5%	.	?	-0.2%	COc1ccc(C(=O)N/N=C/c2ccc(OC)c(COc3ccc(F)cc3F)c2)cc1
-9%	-2	1%	-0.2%	COc1ccnc(N=CNOCc2ccc(Cl)cc2)c1C#N
0%	-4	-14%	6.2%	CC(COC(=O)c1ccccc1)(COC(=O)c1ccccc1)/[N+]([O-])=C/c1ccccc1
26%	3	-14%	0.0%	Cc1cc(C(=O)CCl)c(C)n1CCc1ccc(F)cc1
20%	.	-10%	-0.8%	NC(=O)CC(NC(=O)c1ccccc1)c1ccc(N2CCN(c3ccc(F)cc3)CC2)c([N+](=O)[O-])c1 (centres undefined)
0%	-2	-1%	1.8%	O=C(Oc1ccccc1)c1ccc2nccnc2c1
-55%	1	-15%	-0.2%	O=C1NC(=O)/C(=C\c2ccc(O)cc2O)S1
3%	.	1%	1.4%	COc1cc(C(=O)NCc2nnc(SCC(=O)NC3CCCC3)o2)cc(OC)c1OC
-9%	.	23%	1.7%	COc1ccc(Cl)cc1NC(=O)CCCC(=O)c1ccccc1
0%	-6	-3%	-0.5%	CCn1c(COc2cccc(C)c2)nnc1SCC(=O)Nc1cccc(C(=O)O)c1

miR-21 reporter	GLA inh pH 4.5	Rango release inh	Rango-impB inh	Structure
-11%	-8	?	?	COc1ccc(/C=C/c2cc(=O)c3cc(Cl)ccc3o2)cc1
.	.	27%	0.1%	Cc1ccc2c(c1)C(=O)C(=O)N2Cc1ccc(C(F)(F)F)cc1
-53%	1	?	?	O=C1/C(=C/N(C(=O)c2ccco2)c2ccc(Br)cc2)Sc2ccccc21
.	.	6%	0.6%	NNC(=O)c1n[nH]c2c1CC(C1CCCCC1)CC2 (centres undefined)
.	.	23%	0.1%	CON(C)C(=O)/C=C/CCCCNC(=O)OC(C)(C)C
-8%	-9	0%	-5.0%	COCc1cc(=O)[nH]c(/N=C(\N)Nc2ccc(C)cc2)n1
-4%	12	16%	6.1%	COc1ccccc1Oc1c(C)oc2c(CN(C)C)c(O)ccc2c1=O
-3%	.	-7%	0.4%	CC(C)CC(C(=O)O)N1C(=O)C2C3c4ccccc4C(c4ccccc43)[C@@H]2C1=O (some centres undefined)
0%	.	0%	-0.9%	COCCn1c(SCC(=O)NC2CCCC2)nnc1-c1ccncc1
-17%	1	-2%	-3.9%	CCOc1cc(/C=C2/SC(=Nc3ccccc3)N(Cc3cccnc3)C2=O)ccc1OCC#N
28%	2	-7%	-2.4%	COc1cccc(OC)c1CN1CCCC(C(=O)c2ccccc2SC)C1 (centres undefined)
.	.	-6%	-4.1%	CC(=O)Nc1ccc(NC(=O)COC(=O)c2ccc(Cl)nc2)cc1

miR-21 reporter	GLA inh pH 4.5	Rango release inh	Rango-impB inh	Structure
-8%	7	-6%	-1.1%	O=c1[nH]c(SCc2cccc([N+](=O)[O-])c2)nc2[nH]ncc12
-16%	-10	12%	1.3%	O=c1ncn(-c2ccccc2C(F)(F)F)c2ncccc12
0%	-2	2%	0.0%	O=C(O)c1ccc(-c2nnn(Cc3ccccc3F)n2)cc1
-6%	3	-6%	4.8%	Cc1ccc(N(C(C)C(=O)Nc2ccc(S(=O)(=O)N3CCOCC3)cc2)S(C)(=O)=O)cc1C (centres undefined)
-3%	.	-3%	5.4%	Cn1ccnc1SCC(=O)Nc1ccc([N+](=O)[O-])cn1
23%	0	-2%	-1.0%	CCN(CC)S(=O)(=O)c1cc(C(=O)N2CCc3ccccc32)ccc1Cl
3%	6	1%	-1.0%	COc1ccccc1NC(=S)N(Cc1ccccc1)Cc1cccs1
-7%	1	-7%	5.9%	NC(=O)[C@@H]1CCCCNc2c(F)cc([N+](=O)[O-])cc2C(=O)N[C@@H](CC(=O)O)C(=O)N[C@@H](CCC(=O)O)C(=O)N1
-5%	7	14%	1.6%	COc1ccc(/C=C/C(=O)OCC(=O)Nc2cc(C(F)(F)F)ccc2Cl)cc1
?	-2	-4%	-4.3%	O=C(Nc1cccc(-c2csc(Nc3ccc(Cl)cc3)n2)c1)c1cccc(C(F)(F)F)c1
.	.	-21%	-0.2%	Cc1ccc(NC(=O)CN(C)CC(=O)N(C)Cc2ccccc2)cc1
12%	-3	-9%	0.2%	COc1cccc(C2Nc3cccc4cccc(c34)N2)c1

Sorted by count of non-hydrogen atoms (low to high): part of the list above
miR-21 reporter	GLA inh pH 4.5	Rango release inh	Rango-impB inh	Structure
12%	-3	-9%	0.2%	COc1cccc(C2Nc3cccc4cccc(c34)N2)c1
.	.	-21%	-0.2%	Cc1ccc(NC(=O)CN(C)CC(=O)N(C)Cc2ccccc2)cc1
-5%	7	14%	1.6%	COc1ccc(/C=C/C(=O)OCC(=O)Nc2cc(C(F)(F)F)ccc2Cl)cc1

New compounds follow:
miR-21 reporter	GLA inh pH 4.5	Rango release inh	Rango-impB inh	Structure
-15%	-14	6%	1.5%	Fc1ccccc1OCCCCCCN1CCCC1
-12%	2	-7%	2.5%	C/C(CCc1ccc2c(c1)OCO2)=N\NC(=O)c1ccccc1Cl
4%	-6	-1%	4.3%	CCn1c(CSc2nnc(C)n2-c2ccccc2)nc2cc(S(=O)(=O)N(C)C)ccc21
0%	2	-8%	0.2%	COc1ccccc1C(=O)NCC(=O)N/N=C/c1ccncc1
.	.	-1%	-2.6%	CC(C)(C)OC(=O)N1CCC(NC(=O)c2nc[nH]c2C(=O)NC2CCN(C(=O)OC(C)(C)C)CC2)CC1
12%	.	14%	8.1%	Cc1ccc2nc(NS(=O)(=O)c3cn(C)nc3C)sc2c1
-5%	.	7%	?	Cc1cccc(OCC(=O)Nc2cc(NC(=O)COc3cccc(C)c3)cc(C(=O)O)c2)c1
-5%	-9	1%	-1.1%	COc1ccc(/C=C/C(=O)OCC(=O)Nc2cc(S(=O)(=O)N(C)C)ccc2Cl)cc1
-1%	7	3%	0.4%	CCO/N=C/C(=O)Nc1ccc(F)cc1F
-1%	4	?	0.8%	C=CCCCCCCCC(=O)OC
20%	.	-22%	-1.3%	COCC1CCCCN1C(=O)c1cc(COc2ccc3ncccc3c2)on1 (centres undefined)
-32%	4	-3%	-4.5%	COc1cc(-c2nnn(CC#N)n2)ccc1OCc1ccccc1

Another view of some results above:
Molecule,miR-21 reporter,GLA inh pH 4.5,Rango release inh,Rango-impB inh
COc1ccc(NC(=O)c2oc3ccccc3c2NC(=O)C(C)(C)C)cc1,-8%,2,-1%,-0.1%
COc1ccc(C(=O)N/N=C/c2ccc(OC)c(COc3ccc(F)cc3F)c2)cc1,5%,.,?,-0.2%

(listing goes on)
miR-21 reporter	GLA inh pH 4.5	Rango release inh	Rango-impB inh	Structure
-3%	9	-15%	3.2%	Cc1ccc(C(=O)N/N=C2/NC(=O)CC(C(=O)Nc3ccccc3)S2)cc1 (centres undefined)
2%	-11	2%	1.0%	CC(C)c1ccc(N(CC(=O)Nc2ccc(S(=O)(=O)N3CCOCC3)cc2)S(C)(=O)=O)cc1
-10%	.	0%	1.4%	COc1ccc(-c2oc3ncnc(NCCCN(C)C)c3c2-c2ccc(OC)cc2)cc1
-2%	5	22%	-0.7%	O=c1ccc(Cl)n[nH]1
3%	.	24%	-0.6%	C=CCNC(=S)N1CCC(C(=O)c2ccc(F)cc2)CC1
.	.	-6%	-0.2%	C=CCn1c(SCC(=O)NCC(c2ccccc2)N(C)C)nnc1C1CCCCC1 (centres undefined)
1%	13	7%	-4.4%	CC(=O)Nc1ccc(NC(=O)C2CCCCC2C(=O)O)cc1 (centres undefined)
15%	.	7%	1.6%	COc1ccccc1NS(=O)(=O)c1ccc(-c2cc(C)no2)s1
5%	-10	-10%	1.1%	Cc1ccc(NC(=O)C2(NC(=O)c3cccc(N4C(=O)CSC4c4ccccc4)c3)CCCCC2)cc1 (centres undefined)
-5%	-1	6%	5.8%	O=C(CCC(=O)c1cccs1)OCc1nnc(-c2ccccc2)o1
-10%	5	-7%	1.7%	Cc1ccc(CNS(=O)(=O)c2cccc3nsnc23)cc1
.	.	-1%	1.2%	Cc1ccsc1C(=O)N1CCN(C(=O)c2ccco2)CC1

miR-21 reporter	GLA inh pH 4.5	Rango release inh	Rango-impB inh	Structure
-6%	-9	-15%	8.2%	O=C(Nc1nc2nccc(-c3ccccc3)n2n1)C(Cl)(Cl)Cl
.	.	6%	-0.7%	c1ccc(-c2ccncn2)cc1
-3%	.	1%	1.3%	Cc1cc(=O)oc2cc(OCC(=O)Nc3ccc(CN4CCOCC4)cc3)c(Cl)cc12
2%	1	0%	6.3%	Cc1cc(C(=O)CSc2nnc(-c3cccnc3)n2-c2ccccc2F)c(C)n1C

From PubChem

An excerpt; rates above refer to the full screens.
